H5N1 antiviral: MDCK cell protection from H5N1 avian flu. cytopathic effect, luminescence, 72 h; hits give high values; no value below 0 was filed and about half of the inactive calls have no number; reference of the scale not given here. inhibition, % at 50 µM. 96,000 tested, 0.07% active; in the data active = inhibition above about 25%
* hit, by the source's call; i = inactive. A portion of the library; count on the stated rates, not on these rows.

SMILES	H5N1 antiviral
Cc1c(C(=O)NC(=S)Nc2ccc3c4c(cccc24)CC3)cccc1[N+](=O)[O-]	i
O=C1CCC(=O)N1c1ccc(CSc2nnnn2C2CCCCC2)cc1	0.1
Cc1noc(C)c1S(=O)(=O)N1CCCC(C(=O)NC2CCCCC2)C1 (stereo not drawn)	0.4
COCCNC(=O)Cn1cnc2ccc(S(=O)(=O)N3CCC(C)CC3)cc2c1=O	i
O=C(NCc1ccco1)C1OCCc2ccccc21 (stereo not drawn)	1.0
Cc1ccc(C)n1-n1c(C)nc2scc(-c3cccs3)c2c1=O	i
CN(C)S(=O)(=O)c1cccc(NC(=S)Nc2cc(Cl)cc(Cl)c2)c1	3.4
COc1ccc(/C=N/NS(=O)(=O)c2ccccc2)cc1OC(=O)c1ccc(C)cc1	0.4
COc1ccc2[nH]cc(C(=O)CN3CCCCC3)c2c1	i
CCOC(=O)CCN(Cc1cccs1)S(=O)(=O)c1ccc(Cl)cc1	i
COC(=O)c1sc2ccccc2c1-n1cccc1C(=O)C(=O)Nc1ccc(C)cc1	i
COc1ccc(C(=O)N(Cc2nc(-c3ccc(C)cc3)no2)C(C)C)cc1OC	0.1
COC(=O)c1ccc(CSc2ccc3nnc(-c4ccccc4)n3n2)o1	7.7
CCOC(=O)c1c(C)[nH]c(C(=O)COC(=O)c2[nH]c(C)c(C(C)=O)c2C)c1C	0.2
CCCCN(CC)CCNC(=O)Cn1cnc2sc(C)c(S(=O)(=O)N3CCOCC3)c2c1=O	i
O=C(NCc1ccco1)C1(c2ccc(Br)cc2)CCCC1	i
Cc1ccc(S(=O)(=O)Nc2ccnc3ccccc23)cc1	0.6
Nc1nnc(SCC(=O)NC2CCCCC2)n1-c1ccccc1	0.8
Cc1ccc(-c2nc(COC(=O)c3c(C)noc3C)cs2)cc1	i
S=c1[nH]nc(C2CCCCC2)n1/N=C/c1ccc(Br)s1	i
Cc1cc(C)nc(-n2nc(C)c3c(C(F)(F)F)cc(=O)[nH]c32)n1	1.2
Cc1ccc(CN2CCN(C)CC2)c(C)c1	0.3
COc1ccc(CCN2CC3=C(C2=O)C(c2ccccc2)NC(=O)N3C)cc1OC (stereo not drawn)	3.8
CCOC(=O)Oc1ccc2oc(=O)cc(C)c2c1	0.4
NC(=O)c1ccc(NCc2ccco2)c([N+](=O)[O-])c1	4.4

Looked up one by one from the entries so far (7):
SMILES	H5N1 antiviral
Cc1ccc(S(=O)(=O)Nc2ccnc3ccccc23)cc1	0.6
Nc1nnc(SCC(=O)NC2CCCCC2)n1-c1ccccc1	0.8
Cc1cc(C)nc(-n2nc(C)c3c(C(F)(F)F)cc(=O)[nH]c32)n1	1.2
O=C1CCC(=O)N1c1ccc(CSc2nnnn2C2CCCCC2)cc1	0.1
S=c1[nH]nc(C2CCCCC2)n1/N=C/c1ccc(Br)s1	i
O=C(NCc1ccco1)C1(c2ccc(Br)cc2)CCCC1	i
CCCCN(CC)CCNC(=O)Cn1cnc2sc(C)c(S(=O)(=O)N3CCOCC3)c2c1=O	i

The listing picks up with the 8 entries that preceded the break.
SMILES	H5N1 antiviral
Nc1nnc(SCC(=O)NC2CCCCC2)n1-c1ccccc1	0.8
Cc1ccc(-c2nc(COC(=O)c3c(C)noc3C)cs2)cc1	i
S=c1[nH]nc(C2CCCCC2)n1/N=C/c1ccc(Br)s1	i
Cc1cc(C)nc(-n2nc(C)c3c(C(F)(F)F)cc(=O)[nH]c32)n1	1.2
Cc1ccc(CN2CCN(C)CC2)c(C)c1	0.3
COc1ccc(CCN2CC3=C(C2=O)C(c2ccccc2)NC(=O)N3C)cc1OC (stereo not drawn)	3.8
CCOC(=O)Oc1ccc2oc(=O)cc(C)c2c1	0.4
NC(=O)c1ccc(NCc2ccco2)c([N+](=O)[O-])c1	4.4
CC1CCCN(C(=O)c2cc(F)c(F)cc2Cl)C1 (stereo not drawn)	1.7
C(/CCc1ccccc1)=N\n1cnnc1	i
Cc1nn(-c2ccccc2)c(C)c1/C=N/NC(=O)c1cc(-c2ccc(Br)s2)[nH]n1	9.8
CCN(CCNC(=O)C1CCCN(S(=O)(=O)c2cnc[nH]2)C1)c1ccccc1 (stereo not drawn)	1.4
FC(F)(F)c1nnc2c(Sc3ccccn3)nc3ccccc3n12	14.8
O=C(O)c1c2c(nc3ccc(S(=O)(=O)N4CCC(C(=O)NC5CCCC5)CC4)cc13)CCCCC2	0.4
CCOC(=O)C1CCN(Cc2ccc(N(C)C)cc2)CC1	i
O=c1oc2c(CN3CCOCC3)c(O)ccc2c2ccccc12	1.5
Cc1ccc(OC(=O)c2ccc(C)c(C)c2)cn1	0.2
O=C(O)CCCCCNc1nc2ncn(Cc3ccccc3)c2c(=O)[nH]1	0.1
Cc1ccc(S(=O)(=O)c2c(N)n(NC(=O)c3ccccc3C)c3nc4ccccc4nc23)cc1	i
CCCCOc1ccc(-c2nnn(CC(=O)Nc3ncc(CC(=O)OCC)s3)n2)cc1	1.0
CCCCNC(=O)COC(=O)c1cc(S(=O)(=O)N2CCCCCC2)ccc1OC	i
Oc1ccccc1-c1nc(NCCN2CCOCC2)c2ccccc2n1	i
COc1ccc(Oc2nccc(OC)c2C#N)cc1	i
Cn1c(SCCS(=O)(=O)c2ccc(Cl)cc2)nnc1-c1ccccc1	1.3
CC1=C(C(=O)Nc2ccccc2)C(c2ccncc2)n2nnnc2N1 (stereo not drawn)	i
COc1c(C)cc(Br)cc1C(=O)Nc1cccc(-c2nc3ncccc3o2)c1	i
Cc1cc(C)nc(N2CCC(C(=O)NCc3ccco3)CC2)n1	i
Cc1ccccc1-c1nn[nH]n1	i
Cc1cc(NC(=O)c2cc(C(C)C)on2)no1	0.6
O=C(c1ccc(Cl)cc1)N1CCC(O)(CSc2ccc(Cl)cc2Cl)CC1	i
O=C1NN(c2ccccc2)C(=O)/C1=C\c1cccc(OC(=O)c2cccs2)c1	i
CCOc1ccc(C(Nc2ccc(C)cc2)P2(=O)OCCC(C)O2)cc1 (stereo not drawn)	0.9
CC1CCCCN1C(=O)Cn1c(=O)n(C2CCCCC2)c(=O)c2ccccc21 (stereo not drawn)	1.9
SMILES	H5N1 antiviral
O=C(Cc1ccc2c(c1)OCCO2)c1c(O)cc(O)cc1O	0.0
CC1(C)CC(=O)C(C=NCCN2CCN(CCCCS(=O)(=O)O)CC2)=C(O)C1	i
CC(NC(=O)c1cccnc1)c1ccc2c(c1)OCO2 (stereo not drawn)	1.6
CCOC(=O)N1CCC(NC(=O)CN2C(=O)CSc3ncccc32)CC1	0.5
CCCc1cc(C(N)=O)c(NC(=O)c2ccco2)s1	i
O=C(COc1ccccc1)NCc1ccc2c(c1)OCO2	0.5
Cc1ccc2c(c1)C1CN(C)CCC1N2C(=O)Nc1ccc(Cl)cc1 (stereo not drawn)	i
COc1ccc(S(=O)(=O)Cc2ccc(C(=O)NC3CC3)o2)cc1	1.0
CCOc1ccc2oc(=O)cc(C)c2c1	0.3
O=C(NC1CCCCCC1)c1ccc(S(=O)(=O)NCc2ccco2)cc1	i
Cc1cc(C(F)(F)F)c2c(C)nn(CCc3nn[nH]n3)c2n1	i
C=CCn1c(-c2cc(OC)cc(OC)c2)n[nH]c1=S	i
CC(CC(C)C(=O)N1CCOCCN(C(=O)C(C)CC(C)C(=O)O)CCOCC1)C(=O)O (stereo not drawn)	0.1
CC(C)(C)c1cc(C(=O)NCc2ccco2)ccn1	4.0
CS(=O)(=O)N(CCC(=O)O)Cc1ccccc1	i
CCCOc1ccc(Br)cc1/C=N/O	i
CCn1c(/C=C2\C(=O)N(C)c3ccccc32)nc2ccccc2c1=O	1.9
Cc1sc(-n2cccc2)c(C(=O)O)c1C	0.3
O=C1CC(N2CCC(O)(c3ccc(Cl)cc3)CC2)C(=O)N1Cc1ccc(N2CCCC2=O)cc1 (stereo not drawn)	0.1
O=C(CCn1nnc2ccccc21)Nc1nnc(-c2ccccc2F)s1	0.7
Cc1cc(C)c2c(-n3cccc3)c(C(=O)O)sc2n1	i
Cc1ccc2c(c1)NC(=O)C(CC(=O)NCCCN1CCCC1)O2 (stereo not drawn)	i
CCCCN1C(=O)/C(=C/c2ccc(N(C)C)cc2)C(=O)N(Cc2ccco2)C1=O	i
CCOc1ccc(S(=O)(=O)n2cnc3cc(C)c(C)cc32)cc1	i
COCCCn1c2nc3ccccc3nc2c2c(=O)n(CC3CCCO3)cnc21 (stereo not drawn)	1.6
SMILES	H5N1 antiviral
Cc1cc(C)nc(/N=C(\N)c2c(O)[nH]c(=O)[nH]c2=O)n1	0.6
CCOC(=O)C1=C(Cc2ccc(OC)cc2)C(=O)c2ccccc2C1=O	0.2
NC(=O)c1ccccc1N/C=C/C(=O)c1ccc(Cl)cc1Cl	i
COc1ccc(CCCC(=O)O)c(C)c1	i
CC(=O)Cc1nsc(NC(=O)c2ccc(-c3cccc(C(F)(F)F)c3)o2)n1	i
CCOC(=O)c1sc(NS(=O)(=O)c2ccc(NC(C)=O)cc2)nc1C	0.8
O=C(c1ncc[nH]1)c1ccccc1C(=O)N1CCOCC1	0.1
Cc1ccccc1S(=O)(=O)Cc1ccc(C(=O)N2CCN(c3ccc(F)cc3)CC2)o1	0.3
CCCCCn1c(NC(=O)c2ccco2)c(S(=O)(=O)c2ccc(C)cc2)c2nc3ccccc3nc21	i
CN(C)CCCNCCCNC(=O)/C=N/O	i
COc1ccc(-c2oc3ncnc(NCCCN4CCOCC4)c3c2-c2ccc(OC)cc2)cc1	i
COC(=O)c1cc2c(cc1Cl)SC(=NCCCN1CCOCC1)NS2(=O)=O	1.0
CCn1c(N)c(C(=O)NCCOC)sc1=S	i
CSc1nsc(SC)c1C(=O)OCC(F)(F)F	i
Cc1ccc(-c2cc(C(=O)Nc3cnn(C(C)C)c3)no2)cc1	0.7
CCn1c(=O)cc(SCC(=O)Nc2cccc(SC)c2)c2ccccc21	i
O=C(OCCN(C1=NS(=O)(=O)c2ccccc21)c1ccccc1Cl)c1ccc(Cl)cc1	0.6
C(/C=C/c1ccco1)=N/N1CCN(c2ccccc2)CC1	i
O=C(O)CN=C1NC2(CCCC2)Cc2ccccc21	i
O=C(Cc1cccs1)Nc1ccc(Cl)cc1	i
CC(C)CN(Cc1cc2ccccc2[nH]c1=O)C(=O)c1cccnc1	0.7
O=C(Nc1cccc(Cl)c1)OCc1cn(-c2ccc(Cl)cc2)nn1	i
Cc1ccccc1OCC(=O)N/N=C/c1cccn1C	i
Clc1ccc(CNC2CCCC2)c(Cl)c1	0.4
COCCn1nnnc1SCC(=O)N1CCCCC1	i
SMILES	H5N1 antiviral
Cc1nn(C)c2ncc(C(=O)c3cc(F)ccc3O)cc12	0.9
O=c1cc(C(Cl)(Cl)Cl)oc2c1ccc1ccccc12	i
COc1ccc(C(=O)Nc2ccc(S(=O)(=O)Nc3onc(C)c3C)cc2)cc1OC	0.2
O=C(NCCCN1CCCCCC1)C1CC(=O)N(CCc2ccccc2)C1 (stereo not drawn)	1.1
COc1cccc(C2=NOC(C(=O)Nc3cccc(C(C)=O)c3)C2)c1OC (stereo not drawn)	i
C=C(C)c1ccc(C(C)(C)NC(=O)NCc2ccco2)cc1	1.9
C=CCNC(NC(=O)c1ccccc1)(C(=O)OCC)C(F)(F)F (stereo not drawn)	i
COc1ccc(C(O)c2nc3ccccc3s2)cc1 (stereo not drawn)	i
COc1ccc(-c2cc(-c3ccc(OC)cc3)[nH]n2)cc1	i
C(=N\c1nc2ccccc2n1CCN1CCCCC1)/c1ccc2c(c1)OCO2	i
O=C(NC1CCCC1)c1nc2c(nnn2Cc2cccc(Cl)c2)c(=O)[nH]1	i
COc1ccc2[nH]c(C)c(CCN(Cc3cccs3)C(=S)Nc3ccccc3OC)c2c1	i
O=C(Nc1ccc(F)cc1)c1ccccc1	i
Cc1ccc2[nH]c3c(c2c1)CC/C(=C/c1ccccc1)C3=O	i
CN(Cc1ccccc1)C(=O)COC(=O)c1cc(-c2ccc(Cl)s2)nc2ccccc12	i
COc1ccc(NS(=O)(=O)c2cccc(C(=O)N/N=C(\C)c3ccc(-n4ccnc4)cc3)c2)cc1	0.3
O=C(CCC1CCCCC1)Nc1ccccc1O	i
COc1cc(C)ccc1OCCOc1c(C)cccc1Cl	1.9
CN(C)CCN1C(=O)c2oc3ccc(Cl)cc3c(=O)c2C1c1cccc(Br)c1 (stereo not drawn)	i
COc1ccc(Cl)cc1NC(=O)CN(C)C(C)C(=O)NCC1CCCCC1 (stereo not drawn)	1.1
COC(=O)c1[nH]c2ccc(C)cc2c1NC(=O)CCN1CCN(Cc2ccc3c(c2)OCO3)CC1	i
COc1cccc(OCC(O)CN2CCC(C)CC2)c1 (stereo not drawn)	i
COc1ccc(S(=O)(=O)N2CCN(CC(=O)Nc3cc(OC)cc(OC)c3)CC2)cc1	2.0
COc1ccc(-c2cc(C(=O)O)[nH]n2)cc1OC	i
Cn1nc(-c2ccccc2F)c2cc(C(=O)Nc3ccc4c(c3)OCCO4)sc21	i
SMILES	H5N1 antiviral
C=CCNC(=O)c1c(N)n(-c2cccc(S(N)(=O)=O)c2)c2nc3ccccc3nc12	i
Cc1cc(C)n2nc(C(=O)OCCOc3cccc(Br)c3)nc2n1	i
O=C(CSCc1ccccc1)NCc1ccc2c(c1)OCO2	0.9
O=C(c1cccn(Cc2cccc(Cl)c2)c1=O)N1CCOCC1	1.5
Cc1cccc(C)c1NC(=O)C1C2C=CC(C2)C1C(=O)NCc1ccccn1 (stereo not drawn)	0.1
O=C(NCCCc1ccccc1)c1cccs1	3.5
O=C(NCc1cccs1)NC1CCCCC1	i
CCOCCCNC(=O)Cn1ncc2c(=O)oc3ccccc3c21	0.4
CC(=O)c1cccc(NC(=O)c2ccncc2)c1	i
CCOC(=O)c1cc(C)[nH]c(=S)c1C#N	0.3
CC(=O)Oc1ccc(C(=O)O)cc1OC(C)=O	i
Clc1ccc(C2CC(c3ccccc3)Nc3ncnn32)cc1 (stereo not drawn)	1.7
Cc1ccc(S(=O)(=O)N2CC(=O)Nc3ccccc32)cc1	i
COc1ccc(-c2nc(CN3CCCC(C(=O)NC4CCCC4)C3)c(C)o2)cc1 (stereo not drawn)	i
COc1ccc(C(=O)NCc2ccc(N3CCN(C(=O)OC(C)(C)C)CC3)cc2)cc1	0.6
CCN(CC)CCCNC(=O)c1cc2c(-c3ccc(Cl)cc3)nn(C)c2s1	i

High-throughput results as filed in PubChem BioAssay.
